High-throughput results (PubChem BioAssay)
TRPML1 inh = blocks the human TRPML1 channel | actives 0.02% (n = 390,000) | AID 624415 | activity change, negative = inhibition, % (concentration not given with the values) | Q9GZU1 | TRPML1-inducible cells, Ca2+ dye fluorescence, FDSS; stronger effect = lower value; inhibition of EC80 agonist-evoked calcium signal; in the data active means activity change below about -50%; inconclusive means about -30% to -50%; inactive means above about -30%;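 also: stimulus is agonist 54-4 at its EC80 concentration; % is scaled to controls: 0 for no effect and ±100 for the full control effect; compound concentration not given in the record; the text of the record puts the active cut at -80%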
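Tet-induced TRPML1-DL cells loaded with Ca8 no-wash calcium dye were read kinetically on FDSS. Compound addition was followed by EC80 agonist 54-4 (4 uM final); inhibition was read over 110 s.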
CtBP-E1A blk = blocks the CtBP interaction with E1A; AlphaScreen GST-E1A/His-CtBP binding, 1536-well; stronger effect = lower value; control for the full effect not named in the record; activity change, % (concentration not given with the values); actives 0.49% (n = 340,000); AID 651724; in the data active means activity change below about -65%; inconclusive means about -30% to -65%; inactive means above about -30%; also: % is scaled to controls: 0 for no effect and ±100 for the full control effect
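In 5 uL wells, 23 nL compound meets equimolar GST-E1A and His-CtBP (5X stock 125 nM each) for 2 h, 37 °C. Beads (5X, 50 ug/mL) then 1 h, 37 °C, dark.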
TRPV1 PAM = potentiators of human vanilloid receptor 1 (TRPV1). Q8NER1. TRPV1-expressing cells, Fluo-8 calcium influx, capsaicin EC20 potentiation; host cell line not named in the record; control for the full effect not named in the record. actives 0.02% (n = 320,000). potentiation, % at 8.33 µM; active means potentiation above 80%; inconclusive means 30% to 80%; inactive means below 30%; also: 0% is about no effect
Target sequence (Q8NER1 whole entry, looked up): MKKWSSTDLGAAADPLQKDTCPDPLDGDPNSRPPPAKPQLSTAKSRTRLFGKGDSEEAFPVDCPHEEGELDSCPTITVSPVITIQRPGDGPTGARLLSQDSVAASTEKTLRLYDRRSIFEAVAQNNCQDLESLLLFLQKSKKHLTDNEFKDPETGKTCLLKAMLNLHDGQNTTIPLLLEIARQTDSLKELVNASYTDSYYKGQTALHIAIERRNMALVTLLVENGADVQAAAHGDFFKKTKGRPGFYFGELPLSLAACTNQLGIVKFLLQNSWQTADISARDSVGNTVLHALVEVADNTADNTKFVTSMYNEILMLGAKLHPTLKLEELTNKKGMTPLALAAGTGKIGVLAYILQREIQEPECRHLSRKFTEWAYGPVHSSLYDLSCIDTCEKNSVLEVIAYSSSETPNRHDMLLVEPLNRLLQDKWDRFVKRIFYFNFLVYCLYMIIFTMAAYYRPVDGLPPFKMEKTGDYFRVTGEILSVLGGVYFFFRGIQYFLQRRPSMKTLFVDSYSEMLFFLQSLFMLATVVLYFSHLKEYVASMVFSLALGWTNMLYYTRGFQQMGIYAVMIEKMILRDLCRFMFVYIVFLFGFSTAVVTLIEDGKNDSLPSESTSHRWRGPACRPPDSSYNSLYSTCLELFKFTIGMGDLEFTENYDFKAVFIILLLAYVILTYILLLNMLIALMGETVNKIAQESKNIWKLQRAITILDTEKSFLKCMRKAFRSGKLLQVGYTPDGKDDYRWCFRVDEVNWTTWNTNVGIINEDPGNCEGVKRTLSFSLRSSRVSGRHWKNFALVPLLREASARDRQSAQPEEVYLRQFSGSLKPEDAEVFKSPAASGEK
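Cells expressing TRPV1 were dye-loaded with Fluo-8 and read kinetically: 10 s baseline, 3 min after compound (agonist portion), then 2 min after EC20 capsaicin (allosteric enhancer portion). Calcium-bound dye fluorescence at 480/520 nm.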
TRPML1 ag = human mucolipin-1 channel agonism. TRPML1-expressing cells, Ca2+ dye fluorescence, FDSS; host cell line not named in the record; reference of the full effect not given here. activation, % (no concentration beside the values). actives 0.12% (n = 410,000). AID 624414; in the data active = activation above about 50%; inconclusive = about 30% to 50%; inactive = below about 30%; also: 0% is about no effect; the text of the record puts the active cut at 80%
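Agonist activity was taken from a 110 s kinetic Ca2+ dye read on the FDSS after pinning compounds onto TRPML1-DL cells. The cells were seeded at 1,500/well with Tet inducer, incubated about 16 h, then dye-loaded at room temperature.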
D2 potentiator = positive allosteric modulators of human D2 dopamine receptor; AID 624464; potentiation, % (no concentration beside the values); actives 0.23% (n = 360,000); DiscoveRx D2 beta-arrestin cells, luminescence, 90 min; 100% = 57 uM dopamine signal; active = potentiation of 50% or more; inconclusive = 30% to 50%; inactive = 30% or less;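 also: compound concentration not given in the record; tested on top of an EC20 dose of dopamine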
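PathHunter beta-arrestin assay in DiscoveRx D2 cells. Compounds were added with an EC20 of dopamine (50 nM final) for 90 min at 37 deg C. Luminescence was read 1 h after detection reagent, with 57 uM dopamine as the EC100 control.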
Six1-Eya2 inh = Six1/Eya2 interaction inhibition | Q15475+O00167 | AlphaScreen GST-Six1/His-Eya2 binding, biochemical; stronger effect = lower value; control for the full effect not named in the record | activity change, % (no concentration beside the values) | actives 0.56% (n = 360,000) | AID 651725; in the data active = activity change below about -65%; inconclusive = about -30% to -65%; inactive = above about -30%; also: % is scaled to controls: 0 for no effect and ±100 for the full control effect; compound concentration not given in the record
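Homogeneous AlphaScreen proximity assay pairing GST-Six1 with His-tagged Eya2 (added as 5X mix: 250 nM and 500 nM) in 50 mM Tris pH 8.0, 300 mM NaCl, 1 mM TCEP. Glutathione donor and nickel acceptor beads; 1 h, 37 °C, dark.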
* hit, by the source's call; ? = inconclusive; . = not tested or not shown.

Sample of the layout:
SMILES	TRPML1 inh	CtBP-E1A blk	TRPV1 PAM	TRPML1 ag	D2 potentiator	Six1-Eya2 inh
Cc1cccc(CSCc2nnc(N)s2)c1	-21.9	6.3	-9.5	-0.9	-4.5	-2.4
COc1ccc2c(C)cc(SC3CCOC3=O)nc2c1 (configuration not stated)	0.0	-6.9	13.4	0.7	-4.7	4.3

The list itself, previewed entries included:
SMILES	TRPML1 inh	CtBP-E1A blk	TRPV1 PAM	TRPML1 ag	D2 potentiator	Six1-Eya2 inh
Cc1cccc(CSCc2nnc(N)s2)c1	-21.9	6.3	-9.5	-0.9	-4.5	-2.4
COc1ccc2c(C)cc(SC3CCOC3=O)nc2c1 (configuration not stated)	0.0	-6.9	13.4	0.7	-4.7	4.3
CCc1nc(N2CCN(Cc3ccc4c(c3)OCO4)CC2)c2oc3ccccc3c2n1	16.0	-12.6	-14.2	1.0	-53.8	-25.1
S=c1[nH]nc(-c2ccncc2)n1/N=C/c1ccccc1	-9.8	13.4	4.2	0.2	-19.6	10.1
CCCc1cc(=O)[nH]c(SCC(=O)NC2CCCCCCC2)n1	-10.6	-17.6	.	0.3	-4.8	19.1
O=C(NCC(=O)N1CCN(C(=O)c2ccco2)CC1)c1ccc(Br)cc1	5.4	2.1	-8.3	0.4	-4.4	-7.1
CC1CCC(C(C)C)C(OC(=O)C[n+]2cccc(C(N)=O)c2)C1 (configuration not stated)	-2.5	1.2	-2.9	0.3	-3.5	8.0
CCN1CCN(c2ccc(S(=O)(=O)N3CCOCC3)cc2NC(=O)c2ccc(F)cc2Cl)CC1	-4.4	8.1	-12.8	-0.6	-2.3	-8.2
Cc1ccc(S(=O)(=O)N[C@@H](CC(C)C)C(=O)NCc2ccco2)cc1	5.2	8.9	-1.8	1.8	-4.7	0.3
CC(N=Cc1cc([N+](=O)[O-])ccc1O)c1ccccc1 (configuration not stated)	11.6	5.8	7.4	-0.1	-7.0	3.3
CCN(C(=O)Cn1c([N+](=O)[O-])cnc1C)c1ccccc1	-3.4	.	5.9	-0.2	1.9	2.7
CN(C)c1ccc(N2C(=NC(=O)CC3CCCCC3)SC3CS(=O)(=O)CC32)cc1 (configuration not stated)	10.8	-5.2	-17.1	0.6	-6.4	-1.1
O=C(c1cc2ccccc2o1)N1CCN(Cc2nc3ccccc3s2)CC1	4.6	2.7	.	0.5	-29.7	-1.1
CCc1nnc(NC(=O)CSc2ccc(-c3ccc(-n4cccn4)cc3)nn2)s1	-4.0	-5.0	5.2	1.9	4.7	-11.2
CC(C)(Oc1ccc(Cl)cc1)C(=O)Nc1ccc2oc(=O)ccc2c1	1.9	5.7	-7.0	3.1	-10.6	0.0
O=C(NCCCN1CCOCC1)c1ccc([N+](=O)[O-])cc1[N+](=O)[O-]	-6.4	8.5	3.3	-0.3	?	3.6
COCCN(C(=O)COC(=O)C1CCC(C(C)(C)C)CC1)c1c(N)n(Cc2ccccc2)c(=O)[nH]c1=O (configuration not stated)	7.2	3.5	0.6	0.2	-8.9	-0.6
CC(CCc1ccccc1)NC(=O)C(C)OC(=O)c1ccco1 (configuration not stated)	2.6	5.5	5.5	-1.1	0.3	3.5
Cc1cc(C)c(C(N)=O)c(SCC(=O)c2cc(C)n(-c3cc(C)on3)c2C)n1	5.1	-3.6	.	0.3	-0.6	0.4
O=c1c2ccccc2[nH]c(=S)n1Cc1cccs1	-0.6	4.4	-6.5	-0.3	-2.2	-0.2
Cc1cc(C)c2c(CN3CCC(C)CC3)cc(=O)oc2c1C	-5.8	5.9	-16.1	1.1	-3.5	4.7
COc1cc2c(cc1OC)C1CC(=O)C(CC(C)C)CN1CC2 (configuration not stated)	13.7	-10.6	-13.9	0.7	-29.8	7.4
COc1ccc(C(CNC(=O)c2oc3c(Cl)cccc3c2C)N2CCCC2)cc1 (configuration not stated)	9.5	-9.6	-3.9	0.1	-44.5	-12.9
CNS(=O)(=O)c1ccc2ccccc2c1	36.7	3.1	10.5	1.1	-0.6	5.3
O=C(O)CCC(=O)OCCc1cc2ccccc2c(=O)o1	-9.5	-2.0	.	-0.5	-5.3	26.8
NS(=O)(=O)c1ccc(N/N=C/C=C/c2ccccc2[N+](=O)[O-])cc1	4.6	-19.7	0.4	-0.7	-1.7	?
COc1ccccc1OC(C)C(=O)O (configuration not stated)	-11.6	8.9	-1.7	-0.1	-4.0	5.9
O=C(O)c1c2c(nc3ccc(S(=O)(=O)N4CCC(C(=O)NC5CCCC5)CC4)cc13)CCCCC2	-8.5	3.2	-48.2	-0.9	-3.0	1.7
CC(=O)c1cccc(-c2ccnc3c2CC(C(=O)Nc2ccc4c(c2)OCO4)O3)c1 (configuration not stated)	-9.0	-3.2	.	1.0	-11.2	-11.6
O=C(CCCN1C(=O)/C(=C/c2ccccc2)SC1=S)Nc1ccc(C(=O)O)c(O)c1	-18.3	-16.9	-3.0	0.5	-10.1	-10.8
CCN(C(=O)Cc1c(C(=O)O)n(C)c2ccccc12)c1cccc(C)c1	-21.0	.	6.0	0.8	-10.9	-1.5
CN(C)c1ccc(CNC(=O)C2CCN(S(=O)(=O)c3ccc4c(c3)CCCC(=O)N4)CC2)cc1	3.7	-2.8	?	-0.1	-2.1	-5.8
O=C(CN1C(=O)C2CC=CCC2C1=O)NC1=NCCS1 (configuration not stated)	-9.1	-1.7	16.8	0.5	-8.7	-1.4
CCCCC1(CC(=O)OCC)C(=O)N(c2ccccc2)N(c2ccccc2)C1=O	14.8	0.4	-15.4	1.4	-6.1	3.6
CC(=O)Nc1cc(C(F)(F)F)ccc1OCCOc1ccccc1	10.9	7.4	.	0.6	-14.6	3.1
O=C(CSc1ccc2nnc(CCNC(=O)c3ccccc3)n2n1)NCCc1ccccc1	9.1	0.4	6.4	0.5	-3.0	1.4
COc1cccc(-c2ccc3c(c2)N(Cc2ccc(F)cc2)C(=O)C(C)S3)c1 (configuration not stated)	.	4.3	.	0.1	-0.8	6.7
O=C(O)c1ccc(Nc2nc(-c3ccccc3)c3ccccc3n2)cc1	-3.0	-16.2	10.3	-0.6	7.3	-3.5
Cc1cccc(C)c1N1C(=O)c2ccccc2C1=O	4.0	-5.4	.	1.3	-4.3	7.1
O=C(c1ccc2nccnc2c1)N1CCN(Cc2ccc3c(c2)OCO3)CC1	-4.4	1.6	-6.9	0.1	-0.3	1.1
COc1ccc(C(=O)NC(C(=O)NCC2(N3CCCCC3)CCCCC2)C(C)C)cc1 (configuration not stated)	1.5	-4.8	-6.3	4.7	0.1	3.5
Cc1ccc(S(=O)(=O)c2ccc(Cl)cc2)cc1S(=O)(=O)NC(C)C(=O)O (configuration not stated)	5.8	0.7	-1.6	1.1	-0.1	2.5
COc1ccc(NC(=O)C2CCCO2)cc1OC (configuration not stated)	-0.9	2.2	-3.1	2.8	-4.5	1.5
CCN(CC)CCN1C(=O)C(=O)/C(=C(/O)c2c(C)[nH]c(C(=O)OC)c2C)C1c1cccs1 (configuration not stated)	8.0	-0.7	0.6	0.3	-1.0	-0.4
Cc1cc(N2CCOCC2)nc(N2CCOCC2)c1C#N	-15.2	-1.2	.	-0.4	-2.9	0.9
COC(=O)c1[nH]c2ccc(C)cc2c1NC(=O)Nc1ccccc1OC	15.5	-7.0	-16.1	2.5	-10.2	-0.1
CN(C(=O)COC(=O)CNC(=O)c1sc2ccccc2c1Cl)c1ccccc1	2.7	1.7	8.6	-0.4	-8.7	-1.4
NC(=O)C1CCN(C(=O)c2ccc3nc(-c4ccccc4)c(-c4ccccc4)nc3c2)CC1	31.2	0.6	-2.0	2.1	-5.8	4.8
CN(C)CCCN(C(=O)c1ccc(S(=O)(=O)N(C)C)cc1)c1nc2cc3c(cc2s1)OCO3	22.5	-4.1	15.7	1.2	-8.8	-2.7
COc1ccc(OC)c(NC(=O)COC(=O)[C@H](Cc2ccccc2)NC(=O)c2ccco2)c1	-4.2	-0.1	.	1.3	-3.4	-4.3
COC(=O)c1ccc(NS(=O)(=O)c2ccc3c(c2)oc(=O)n3C)cc1	-7.2	-5.5	8.4	0.6	-2.0	-1.3
COc1cc(OC)c(C(=O)NC2CC(C)(C)NC(C)(C)C2)cc1OC	-2.2	-4.7	-7.2	0.2	-23.1	1.1
CC/C(=C\C1CCCCC1)C(NP(=O)(c1ccccc1)c1ccccc1)c1ccccc1 (configuration not stated)	-8.8	3.3	2.9	0.1	-14.6	0.3
Cc1ccc2cc(CCNC(=O)c3ccco3)c(=O)[nH]c2c1C	8.5	-1.8	11.1	-0.7	0.4	-5.7
COc1ccc([N+](=O)[O-])cc1NC(=O)COC(=O)c1ccccn1	-5.1	2.9	9.5	-0.6	-20.1	-18.0
CCC(=O)NN1CCc2cc3ccc(C)cc3nc21	-20.3	4.8	-1.5	-0.7	-4.4	10.0
CC(=O)NC(=S)Nc1ccc([N+](=O)[O-])cc1C	-0.1	6.0	-2.5	-0.7	-4.1	-0.3
COc1ccc(-c2c(N)n[nH]c2C)cc1OC	-25.2	1.9	-0.4	-1.0	8.3	11.3
Nc1c(C(=O)NCc2ccc3c(c2)OCO3)c2nc3ccccc3nc2n1CCCN1CCOCC1	0.5	48.5	6.7	-0.2	-15.2	-12.7
CCOC(=O)COc1ccc(S(=O)(=O)N2CCc3ccccc3C2)cc1	-1.6	-7.1	5.2	1.0	7.6	-4.5

Looked up above.
TRPML1 inh result of `S=c1[nH]nc(-c2ccncc2)n1/N=C/c1ccccc1` → -9.8
D2 potentiator result of `CCN(CC)CCN1C(=O)C(=O)/C(=C(/O)c2c(C)[nH]c(C(=O)OC)c2C)C1c1cccs1` (configuration not stated) → -1.0

Next section.
SMILES	TRPML1 inh	CtBP-E1A blk	TRPV1 PAM	TRPML1 ag	D2 potentiator	Six1-Eya2 inh
Cc1ccc(-n2cc(CN(C)Cc3ncc[nH]3)c(-c3cccc(C)c3)n2)cc1	20.0	-26.9	-6.7	2.1	-8.7	?
CCN(CC(=O)Nc1ccc2c(c1)OCCO2)C(=O)CCc1ccccc1Cl	-6.0	-2.1	-8.3	-0.4	-2.7	-1.1
Clc1cnc2nc(SC/C=C/c3ccccc3)[nH]c2c1	-12.0	3.8	9.9	2.1	-4.2	8.6
CC(C)Cc1nc(SCC(=O)Nc2nnc(CC(C)C)s2)n[nH]1	3.0	1.7	-13.1	0.6	1.4	0.4
COC(=O)c1ccnc(/C=N/O)c1	-14.7	-27.6	6.4	0.7	3.1	-19.4
C[C@H](NC(=O)[C@H]1N2C(=O)c3ccccc3C2SC1(C)C)C(=O)N1CCCCC1 (some centres not stated)	-2.0	.	-9.5	-0.8	2.5	-1.5

One compound at a time, as listed above:
`Cc1cccc(C)c1N1C(=O)c2ccccc2C1=O` across the screens: TRPML1 inh: 4.0; CtBP-E1A blk: -5.4; TRPV1 PAM: .; TRPML1 ag: 1.3; D2 potentiator: -4.3; Six1-Eya2 inh: 7.1
`Nc1c(C(=O)NCc2ccc3c(c2)OCO3)c2nc3ccccc3nc2n1CCCN1CCOCC1` across the screens: TRPML1 inh: 0.5; CtBP-E1A blk: 48.5; TRPV1 PAM: 6.7; TRPML1 ag: -0.2; D2 potentiator: -15.2; Six1-Eya2 inh: -12.7
